Source: PubChem
Mtb bLac sens = beta-lactam sensitization of Mtb H37Rv. 330,000 tested, 0.27% active. M. tuberculosis H37Rv growth with meropenem, percent inhibition; hits of this screen are not shown here. inhibition, % at 25 µM;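 active = about 74% or more and at least 40 points above the plate without the antibiotic, then above 30% in a dose series; inconclusive = first-round hits that could not be retested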;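 also: growth measured after seven days incubation then overnight dye step; 0% = bacteria only wells and 100% = bacteria with antibiotic; twin plates without the antibiotic show which effects depend on it; some results filed as inactive read as strong as hits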
YopH inh = inhibitors of Yersinia enterocolitica YopH tyrosine phosphatase | inhibition, %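 (about 10 µM by stock and volumes)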 | AID 898 | fluorescence Ex485/Em525 | 140,000 tested, 0.16% active;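 active = inhibition of 50% or more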;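 also: controls were vehicle for no effect and minimum signal wells for full effect; inactives centre near -20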
Mtb growth = M. tuberculosis H37Rv growth inhibitors, H37Rv strain (AID 1626); inhibition, % at 10 µM, or IC50 in µM where a hit was titrated; 220,000 tested, 0.95% active; M. tuberculosis H37Rv growth inhibition; higher % means a stronger effect;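 active = confirmed in a dose series; inconclusive = inhibition above 80% but not taken into the dose series; inactive = below 80% or under 30% at every dose of the series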;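 also: bacteria incubated seven days before Alamar blue readout; 0% = bacteria only wells and 100% = bacteria with antibiotic wells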
Arbovirus anti = antivirals against arbovirus infection | arbovirus infection cell-based antiviral screen | inhibition, % at 10 µM | 200,000 tested, 0.37% active;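 active = inhibition from about 30%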;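 also: bluetongue infection of BSR cells; cell survival read as ATP light after 72 h; 0% = infected wells without compound and 100% = uninfected wells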
RecA intein inh = blocks M. tuberculosis RecA intein splicing; 290,000 tested, 0.75% active; inhibition, %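 (about 9 µM by stock and volumes)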; AID 2221; cell-free RecA intein splicing, fluorescence; in the data active = inhibition above about 30%; inconclusive = no clear call, values can overlap the other calls;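 also: 0% = vehicle wells and 100% = reference inhibitor control wells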
Target sequence (P9WHJ3 whole entry, looked up): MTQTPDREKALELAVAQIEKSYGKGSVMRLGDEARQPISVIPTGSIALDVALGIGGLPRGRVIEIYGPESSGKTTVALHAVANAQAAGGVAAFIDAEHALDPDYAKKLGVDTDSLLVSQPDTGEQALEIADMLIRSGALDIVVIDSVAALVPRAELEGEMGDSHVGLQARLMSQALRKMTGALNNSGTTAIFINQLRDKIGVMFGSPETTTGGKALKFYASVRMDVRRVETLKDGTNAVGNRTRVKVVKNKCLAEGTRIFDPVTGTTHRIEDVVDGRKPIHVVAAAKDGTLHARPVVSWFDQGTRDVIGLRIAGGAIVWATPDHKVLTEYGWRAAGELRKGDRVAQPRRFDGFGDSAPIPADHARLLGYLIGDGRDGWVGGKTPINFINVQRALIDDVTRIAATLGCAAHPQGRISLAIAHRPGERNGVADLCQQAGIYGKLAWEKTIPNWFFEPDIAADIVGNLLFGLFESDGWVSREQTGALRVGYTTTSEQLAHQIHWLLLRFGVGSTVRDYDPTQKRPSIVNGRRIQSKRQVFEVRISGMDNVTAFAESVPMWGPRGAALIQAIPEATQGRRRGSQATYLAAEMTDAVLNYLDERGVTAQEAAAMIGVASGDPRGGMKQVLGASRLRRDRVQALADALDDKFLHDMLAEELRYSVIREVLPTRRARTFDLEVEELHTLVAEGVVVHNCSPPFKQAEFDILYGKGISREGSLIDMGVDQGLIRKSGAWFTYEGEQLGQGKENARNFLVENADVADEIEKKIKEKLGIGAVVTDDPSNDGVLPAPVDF
Arbovirus anti repeat = also measured in Arbovirus anti; calls as there; inhibition, %; measured here: 10K subset replicate screen; many hits read low in the repeat;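 first of two repeat runs on a subset; 0% = infected and 100% = uninfected wells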
Active calls of the source: *.

Screening O=C1C2CCCN2C(=O)N1CCN1CCN(c2ccccc2)CC1 (centres undefined) returned Mtb bLac sens 4.0, YopH inh -48.6, Mtb growth -3.2%, Arbovirus anti -0.2 and RecA intein inh -1.7.
Cc1cc(NC(=O)CCCOc2ccc(Cl)cc2Cl)no1 was read as Mtb bLac sens 6.2, YopH inh -37.7, Mtb growth -12.8%, Arbovirus anti 0.1 and RecA intein inh 0.5.
`COc1ccc2c(c1OC)C(=O)OC2Nc1ccccn1` (centres undefined) gave Mtb bLac sens -17.5, YopH inh -39.0, Mtb growth -3.1%, Arbovirus anti 8.2, RecA intein inh -1.4 and Arbovirus anti repeat 0.5.
COc1cc(CNc2ccc3[nH]c(=O)[nH]c3c2)ccc1OCc1ccccc1F was read as Mtb bLac sens -0.7 and RecA intein inh -1.1.
`O=C(NCc1cccc(C(F)(F)F)c1)C1CC2Cn3c(nc4ccccc43)C2N1Cc1ccccc1` (centres undefined) gave Mtb bLac sens -2.8, Mtb growth 0.8% and RecA intein inh -1.4.
O=C(CN(Cc1ccco1)C(=O)c1ccc(Cl)cc1)Nc1ccc(Cl)c(Cl)c1 was read as Mtb bLac sens -3.2, YopH inh -21.8, Mtb growth -5.4%, Arbovirus anti 5.3 and RecA intein inh -0.2.
`O=C(O)/C(=C/c1ccco1)NC(=O)c1ccccc1` gave Mtb bLac sens -2.8, YopH inh -28.9, Mtb growth 5.2%, Arbovirus anti -11.2 and RecA intein inh -1.4.
Screening O=[N+]([O-])c1c(NCc2ccco2)ccc2nonc12 returned Mtb bLac sens -6.4, Mtb growth -3.5% and RecA intein inh 42.4*.
For Cc1cc(C)nc(Sc2ncnc3sc4c(c23)CCC4)n1 the results were Mtb bLac sens 8.3, YopH inh -22.1, Mtb growth -5.2%, Arbovirus anti 3.8 and RecA intein inh 1.6.
Screening CC1=NN(c2nc(-c3ccc(Cl)cc3)cs2)C(=O)C1 returned Mtb bLac sens -1.8, YopH inh -21.8, Mtb growth 1.4%, Arbovirus anti 42.2* and RecA intein inh 25.8.
Screening O=C(Nc1ccccc1Cl)N1CCN(c2ccc3nncn3n2)CC1 returned Mtb bLac sens 0.9, YopH inh 1.8, Mtb growth 14.2%, Arbovirus anti -3.7 and RecA intein inh 1.1.
For CN1C[C@H](CO)C[C@@H]2c3cccc4[nH]cc(c34)C[C@H]21 the results were Mtb bLac sens inconclusive and RecA intein inh -1.4.
Screening O=C(Nc1ccc2ccccc2c1)c1cccc([N+](=O)[O-])c1 returned Mtb bLac sens 8.8 and RecA intein inh -1.9.
For O=C(Nc1ccccn1)c1cccnc1 the results were Mtb bLac sens -5.7, YopH inh -16.5, Mtb growth -3.7%, Arbovirus anti 0.2 and RecA intein inh -1.6.
`Cc1cccc(C)c1OCC(=O)Nc1nnc(C2CCCO2)s1` (centres undefined) gave Mtb bLac sens 5.2, YopH inh -20.5, Mtb growth 2.0%, Arbovirus anti -6.9 and RecA intein inh -1.0.
For Cc1c(N(C)C(=O)C23CC4CC(CC(C4)C2)C3)c(=O)n(-c2ccccc2)n1C the results were Mtb bLac sens 5.8, YopH inh -24.0, Mtb growth -9.4%, Arbovirus anti 8.7 and RecA intein inh -0.3.
For COc1ccc(C(=O)CSc2nnc3n2CCCN3C(=O)Nc2ccccc2)cc1 the results were Mtb bLac sens 0.3, Mtb growth -7.3% and RecA intein inh 3.7.
`COC(C(=O)Nc1ccc(C(N)=O)cc1)c1ccccc1` (centres undefined) gave Mtb bLac sens 2.7, Mtb growth -5.0% and Arbovirus anti -0.6.
COc1ccc(NC(=O)c2sc3ncnc(N4CCN(c5ccccn5)CC4)c3c2C)cc1Cl was read as Mtb bLac sens -1.9 and RecA intein inh 8.1.
`COC(=O)c1ccc(C(=O)OC)c(NC(=O)CN2CCN(c3ccccc3)CC2)c1` gave Mtb bLac sens 90.6, YopH inh -31.8, Mtb growth 66.1µM*, Arbovirus anti 4.4 and RecA intein inh 9.9.
`Cc1onc(C(=O)NC2CCCCC2)c1[N+](=O)[O-]` gave Mtb bLac sens 0.5 and RecA intein inh -10.1.
Screening Cc1nc2ccc(NC(=S)NCCCO)cc2nc1C returned Mtb bLac sens -4.5, Mtb growth -5.3%, Arbovirus anti 7.7 and RecA intein inh -7.3.
Screening CCOC(=O)C1=C(c2ccccc2)NC(N)=NC1c1ccc(OCc2ccc(C(=O)OC)cc2)cc1 (centres undefined) returned Mtb bLac sens 97.3 and RecA intein inh 46.1*.
O=S(=O)(c1ccc2nc(COc3ccc(Cl)cc3Cl)[nH]c2c1)N1CCOCC1 was read as Mtb bLac sens 13.1, YopH inh -48.0, Mtb growth -0.7%, Arbovirus anti -20.9 and RecA intein inh 5.0.
COc1cccc(-c2onc3ccc(C(=O)/C=C/N(C)C)cc23)c1 was read as Mtb bLac sens -0.6 and RecA intein inh 6.3.
`O=C(/C=C/Sc1ccccc1)c1ccccc1` gave Mtb bLac sens 100.2, YopH inh 12.4, Mtb growth inconclusive, Arbovirus anti -42.5 and RecA intein inh 3.5.
CCOC(=O)c1nn(-c2cccc(OC)c2)c(-c2ccccc2)c1C(=O)c1ccccc1 was read as Mtb bLac sens -6.9, YopH inh -10.6, Mtb growth 7.3%, Arbovirus anti -8.3 and RecA intein inh 19.1.
Screening COc1ccc(CCNC(=O)C(=O)NCC2OCCN2S(=O)(=O)c2ccc(OC)c(C)c2)cc1 (centres undefined) returned Mtb bLac sens -1.2 and RecA intein inh -6.3.
CCOc1ccc(S(=O)(=O)Nc2cccc(C(=O)NCC(c3ccccc3)N(C)C)c2)cc1 (centres undefined) was read as Mtb bLac sens -18.9 and RecA intein inh 2.0.
`O=c1[nH]c2ccccc2[nH]c1=O` gave Mtb bLac sens 0.5, Mtb growth -2.5% and RecA intein inh 1.1.
`C#CCCOC(=O)N1C2=NC(C(=O)OC)=C(C(=O)OC)[C@@H]3N(CC=C)c4ccccc4[C@]23C[C@H]1C(=O)OC` gave Mtb bLac sens -6.3, Mtb growth -1.3% and RecA intein inh -1.6.
For COc1cccc2cc(C(=O)CC3(O)C(=O)N(Cc4ccccc4)c4ccccc43)c(=O)oc12 (centres undefined) the results were Mtb bLac sens 4.7, YopH inh -37.0, Mtb growth -3.2%, Arbovirus anti -0.3 and RecA intein inh 0.3.
CCCNC(=O)C1Cc2cc(S(=O)(=O)N3CCCC3)ccc2N1C(C)=O (centres undefined) was read as Mtb bLac sens -5.6 and RecA intein inh -1.5.
Cn1c(=NC(=O)c2ccco2)sc2ccccc21 was read as Mtb bLac sens -0.9, Mtb growth -1.4%, Arbovirus anti -5.5 and RecA intein inh 1.2.
Cc1cc(C)c(-n2c(SCC(=O)N3CCOCC3)n[nH]c2=O)c(C)c1 was read as Mtb bLac sens -0.4 and RecA intein inh 1.2.
`COc1ccc(CCC(C)NC(=O)CCc2ccccc2)c(OC)c1` (centres undefined) gave Mtb bLac sens 3.7 and RecA intein inh -0.2.
Screening O=c1c(-c2ccccc2)c(O)nc(SCCN2CCOCC2)n1-c1ccccc1 returned Mtb bLac sens 96.9, YopH inh -23.9, Mtb growth 35.6%, Arbovirus anti 3.9 and RecA intein inh 2.3.
For O=[N+]([O-])c1cccnc1N1CCC(c2cc(-c3ccc(Cl)cc3Cl)n[nH]2)CC1 the results were Mtb bLac sens 95.7, YopH inh -5.6, Mtb growth inconclusive, Arbovirus anti -42.4 and RecA intein inh 10.3.
For O=C(O)CCCCCCCCc1cn(Cc2ccc(C(=O)c3ccccc3)cc2)nn1 the results were Mtb bLac sens 12.0 and RecA intein inh -0.1.
Screening Cc1ccn2cc(-c3cccc(S(=O)(=O)N4CC(C)OC(C)C4)c3)nc2c1 (centres undefined) returned Mtb bLac sens -0.8 and RecA intein inh -0.4.

Random excerpt: two records from the list, in no set order.
`C#CCCOC(=O)N1C2=NC(C(=O)OC)=C(C(=O)OC)[C@@H]3N(CC=C)c4ccccc4[C@]23C[C@H]1C(=O)OC` gave Mtb bLac sens -6.3, Mtb growth -1.3% and RecA intein inh -1.6.
Cc1cc(C)c(-n2c(SCC(=O)N3CCOCC3)n[nH]c2=O)c(C)c1 was read as Mtb bLac sens -0.4 and RecA intein inh 1.2.

New compounds follow
Cc1cc(N2CCN(C(=O)Nc3ccccc3C#N)CC2)c2ccccc2n1 was read as Mtb bLac sens 97.4 and RecA intein inh 2.4.
For O=S(=O)(c1cccc(C(F)(F)F)c1)N1CCN(c2nnnn2-c2ccccc2)CC1 the results were Mtb bLac sens inconclusive, YopH inh -18.0, Mtb growth -11.2%, Arbovirus anti -5.2 and RecA intein inh -0.6.
N#Cc1c2n(c(=O)[nH]c1=O)CCCCC2 was read as Mtb bLac sens -3.4, YopH inh -11.8, Mtb growth -4.8%, Arbovirus anti -4.1, RecA intein inh -7.4 and Arbovirus anti repeat -1.1.
For COC(=O)c1sc(NC(=O)COc2ccccc2C)nc1C the results were Mtb bLac sens 3.8, Mtb growth 8.7%, Arbovirus anti -26.6 and RecA intein inh 0.0.
Screening NNC(=O)c1nc[nH]c1C(=O)Nc1ccccc1[N+](=O)[O-] returned Mtb bLac sens 6.4, Arbovirus anti -5.7 and RecA intein inh 5.2.
O=C(CNS(=O)(=O)c1ccccc1)N1CCN(c2ccccc2)CC1 was read as Mtb bLac sens 6.1, YopH inh -16.1, Mtb growth 2.6%, Arbovirus anti 5.9 and RecA intein inh 1.5.
Screening Cc1nnc(NC(=O)CCN2C(=O)/C(=C\c3ccccc3)SC2=S)s1 returned Mtb bLac sens -10.8, Mtb growth 10.9% and RecA intein inh 4.0.
`CC1(C)CSC(Nc2ccc(F)c(Cl)c2)=N1` gave Mtb bLac sens -6.3, YopH inh -17.3, Mtb growth 1.7%, Arbovirus anti 3.8 and RecA intein inh 2.5.
Screening O=C(Nc1cccc(Cl)c1Cl)C1CC(=O)N(c2ccc(Br)cc2)C1 (centres undefined) returned Mtb bLac sens 8.4, YopH inh 10.8, Mtb growth -0.2%, Arbovirus anti -5.1 and RecA intein inh 1.5.
CCOc1ccc(N(C(=O)c2snc(C(N)=O)c2N)C(C(=O)NC2CCCC2)C(C)C)cc1 (centres undefined) was read as Mtb bLac sens -2.2 and RecA intein inh 3.5.
Screening Cc1nc2ccc(S(=O)(=O)NCC(=O)N3CCc4ccccc43)cc2s1 returned Mtb bLac sens 4.3, YopH inh -47.9, Mtb growth 1.0%, Arbovirus anti -1.3 and RecA intein inh 0.3.
`O=C(NCC1CCCN1S(=O)(=O)c1cccs1)c1ccc(F)c(F)c1` (centres undefined) gave Mtb bLac sens -0.5 and RecA intein inh 0.0.
`O=C(O)c1ccc(Nc2ccc(Cl)c(Cl)c2)c([N+](=O)[O-])c1` gave Mtb bLac sens -0.2 and RecA intein inh -2.8.
`O=C(NCC1CCCO1)c1onc(CSc2cccc(Cl)c2)c1C(=O)O` (centres undefined) gave Mtb bLac sens -4.0, YopH inh -1.6, Mtb growth -13.5%, Arbovirus anti 16.9 and RecA intein inh -0.9.
For COCCNC(=O)c1cn(C)c2ccccc2c1=O the results were Mtb bLac sens -12.8, Arbovirus anti 7.3 and RecA intein inh -1.8.
`COc1ccccc1NC(=O)C(C)OC(=O)CN1C(=O)C2CC=CCC2C1=O` (centres undefined) gave Mtb bLac sens -8.5 and RecA intein inh 0.4.
`COc1ccc(/C=C2\CCc3ccccc3C2=O)cc1O` gave Mtb bLac sens 0.5 and RecA intein inh 9.0.
Cc1cccc2sc(N(CCCN(C)C)C(=O)c3cc4ccccc4oc3=O)nc12 was read as Mtb bLac sens 13.6, YopH inh -34.4, Mtb growth 3.6%, Arbovirus anti -13.8 and RecA intein inh 8.2.
For Cc1ccc(Cl)cc1N(CC(=O)NC(C)c1ccccc1)S(C)(=O)=O (centres undefined) the results were Mtb bLac sens 0.1 and RecA intein inh -1.2.
`CCOc1ccccc1Nc1nc(-c2sc(NC(=O)c3ccco3)nc2C)cs1` gave Mtb bLac sens 3.5, YopH inh -5.8, Mtb growth -3.7%, Arbovirus anti 17.2 and RecA intein inh 3.8.
CNC(=O)c1ccccc1-c1cn(C)c2ccccc2c1=O was read as Mtb bLac sens 6.5, Mtb growth -3.6%, Arbovirus anti 19.3 and RecA intein inh 2.0.
For CC(C)(C)[C@H]1C=C(C(=O)NC2CC2)O[C@@H](OCCCCO)C1 the results were Mtb bLac sens -4.8, Mtb growth -2.1%, Arbovirus anti 3.4 and RecA intein inh -2.6.
CC(C)(C)N/C=C(\C#N)S(=O)(=O)c1ccc(Br)cc1 was read as Mtb bLac sens 3.4, Mtb growth -11.7% and RecA intein inh 0.9.
Screening Cc1cccc(C(=O)Nc2nc(C)c(C(=O)Nc3ccc4c(c3)CCC4)s2)c1 returned Mtb bLac sens 98.1, YopH inh -25.4, Mtb growth inconclusive, Arbovirus anti -17.2 and RecA intein inh 1.7.

An excerpt; the hit share may differ from the screen's.
